# Assay outcomes: PubChem, National Center for Advancing Translational Sciences (NCATS)
# Cruzain noTriton: cruzain (T. cruzi) inhibition without detergent | Potency, µM, without a hit: max response, negative = inhibition, usual class: inhibitors | purified cruzain, Z-FR-AMC fluorescence, no detergent | 2.3% of 200,000 active | P25779 | AID 1476;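 note: plate controls were enzyme without inhibitor for no effect and buffer without enzyme for full effect; nearly all actives have a fitted effect of over 40% in size; top concentration of the series not given in the record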
# Target sequence (P25779 123-467 limits assumed): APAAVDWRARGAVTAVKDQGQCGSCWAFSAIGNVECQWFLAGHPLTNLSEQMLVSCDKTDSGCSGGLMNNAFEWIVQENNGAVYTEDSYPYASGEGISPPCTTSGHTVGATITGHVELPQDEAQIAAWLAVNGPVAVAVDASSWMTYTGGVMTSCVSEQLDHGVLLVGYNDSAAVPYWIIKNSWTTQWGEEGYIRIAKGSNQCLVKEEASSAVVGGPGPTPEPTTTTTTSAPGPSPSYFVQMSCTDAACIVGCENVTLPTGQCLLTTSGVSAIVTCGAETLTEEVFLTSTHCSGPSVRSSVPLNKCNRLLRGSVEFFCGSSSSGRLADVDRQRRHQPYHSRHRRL
#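 Purified cruzain at 1.5 nM, pre-incubated 15 min with compound at room temperature in 100 mM sodium acetate pH 5.5, 5 mM DTT, 0.00005% Triton X-100. Reaction started with 2 uM Z-FR-AMC; AMC fluorescence increase over 60 s gives rate.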
# NS1 inh: inhibitors of influenza NS1 protein function; 0.4% of 270,000 active; S. cerevisiae slowed by influenza A NS1, growth recovery by OD600; Potency, µM (top dose mostly 46.1 µM), without a hit: at the highest dose activity, positive = more growth; active means well fitted rising curve with a large enough effect; inconclusive means small, poorly fitted or top-dose-only effect; inactive means no such curve, though single readings can be large or run the other way; note: nearly all actives have a fitted effect of over 50% in size
#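 Growth recovery, yeast-based: influenza A NS1 expressed in S. cerevisiae causes slow growth, and suppressors are detected by OD600. The parent strain without NS1 is used as positive control.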
# SARS PLP yeast: inhibitors of SARS-CoV papain-like protease in yeast. S. cerevisiae expressing SARS-CoV PLpro, growth rescue; control for the full effect not named in the record. Potency, µM (titrated, usually from 32.9 µM), for the others: top-dose activity, positive = growth rescue. 0.19% of 330,000 active. AID 485353; active means well fitted rising curve with a large enough effect; inconclusive means small, poorly fitted or top-dose-only effect; inactive means no such curve, though single readings can be large or run the other way; note: 0% is about no effect; nearly all actives have a fitted effect of over 55% in size; growth read by luminescence after 48 h
# RE007 growth inh: less growth of the S. pombe RE007 Vpr strain; S. pombe RE007 Vpr strain, BacTiter-Glo ATP luminescence, 24 h; control for the full effect not named in the record; Potency, µM (highest dose often 92.2 µM), without a hit: at the top dose activity change, negative = less growth; 0.21% of 360,000 active; AID 651644; active = well fitted falling curve with a large enough effect; inconclusive = small, poorly fitted or top-dose-only effect; inactive = no such curve, though single readings can be large or run the other way;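 note: % is set by controls: 0 for no effect and ±100 for the full control effect; nearly all actives have a fitted effect of over 50% in size; the assay follows cell death caused by Vpr and the record does not say whether a fall means rescue or toxicity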
#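 Fission yeast RE007 carrying one integrated HIV-1 vpr copy, seeded at OD 0.01 in PMG+AL medium with 23 nL pinned compound. Grown 24 h at 30 degrees; viability read by BacTiter-Glo luminescence after 5 min.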
# LASV entry inh: inhibitors of Lassa virus binding or cell entry; Lassa virus pseudotype entry inhibition, cell reporter; control for the full effect not named in the record; Potency, µM (doses to about 37.9 µM), for the others: at the highest dose activity change, negative = inhibition, most hits filed as inhibitors; 1.2% of 300,000 active; AID 540256; active means well fitted inhibition curve with a large enough effect; inconclusive means small, poorly fitted or top-dose-only effect, or effect the other way; inactive means flat fitted curve, though single readings scatter; tested in HEK293 cells; note: % is set by controls: 0 for no effect and ±100 for the full control effect; nearly all actives have a fitted effect of over 50% in size; luciferase read-out
# 2A StopGo: lowers the luciferase signal of an FMDV 2A StopGo reporter; 1.2% of 410,000 active; human cells with a luciferase reporter of 2A StopGo recoding; control for the full effect not named in the record; Potency, µM (top dose mostly 57.9 µM), for inactives: at the top dose signal change, negative = less light; active = well fitted falling curve with a large enough effect; inconclusive = small, poorly fitted or top-dose-only effect; inactive = no such curve, though single readings can be large or run the other way; tested in HEK293T cells; note: % is set by controls: 0 for no effect and ±100 for the full control effect; nearly all actives have a fitted effect of over 45% in size; luciferase light after 4 h
# MARV entry inh: Marburg virus entry inhibition; Marburg virus pseudotyped entry inhibition, cell reporter; control for the full effect not named in the record; about a third of the inactives were read at about 46 µM; Potency, µM (titrated, usually from 37.8 µM), inactives show at the highest dose activity change, negative = inhibition, most hits filed as inhibitors; 1.8% of 300,000 active; AID 540276; active = well fitted inhibition curve with a large enough effect; inconclusive = small, poorly fitted or top-dose-only effect, or effect the other way; inactive = flat fitted curve, though single readings scatter; tested in HEK293 cells; about a fifth of its hits are not listed in these tables; note: % is set by controls: 0 for no effect and ±100 for the full control effect; luciferase read-out
# Cruzain inh Det: cruzain (T. cruzi) inhibition with detergent; P25779; 0.43% of 200,000 active; purified cruzain, Z-FR-AMC fluorescence, 0.01% Triton; Potency, µM, for inactives: max response, negative = inhibition, actives largely listed as inhibitors;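 note: plate controls were neutral wells for no effect and buffer without enzyme for full effect; nearly all actives have a fitted effect of over 40% in size; top concentration of the series not given in the record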
#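 15 min RT preincubation of 1.5 nM cruzain with compound, then 2 uM Z-FR-AMC added; kinetic AMC fluorescence, 60 s delta. Triton X-100 0.01%, pH 5.5.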
# * hit, by the source's call; ? = inconclusive; nt = not tested or not shown; & = joins results of further samples; [ ] = remark or other dose. Unless noted, calls come from the whole dose curve; as a rule, active = well fitted curve in the direction sought with a large enough effect; inconclusive = small, poorly fitted or top-dose-only effect, or another doubt; inactive = no such curve, though single readings can be large; an effect the other way counts as inactive or inconclusive. Potency is the fitted concentration of half-maximal effect.
SMILES,Cruzain noTriton,NS1 inh,SARS PLP yeast,RE007 growth inh,LASV entry inh,2A StopGo,MARV entry inh,Cruzain inh Det
Cc1cc(NC(=O)c2ccc(NC(=O)CC(C)C)cc2)no1,10%,-3%,4%,-2%[3.69 µM],5%,22%,23%,7.1%
COc1ccc(-c2c(-c3ccc4c(c3)OCO4)noc2C)cn1,nt,-65%,-1%,-10%,nt,10%,nt,nt
CC(=O)c1ccccc1NC(=O)CSc1nc2ccccc2c(=O)n1CCCN1CCOCC1,nt,nt,?,4%,3%,?,5%,nt
COc1ccc(OCC(=O)Nc2ccccc2Cl)cc1,nt,-9%,0%,-6%,7%,-6%,-3%[46.1 µM],nt
O=C(Nc1cccnc1)c1cccc(S(=O)(=O)N2CCCC2)c1,nt,-6%,-2%,2%,5%[46.1 µM],7%,-1%[46.1 µM],nt
Cc1noc(C)c1S(=O)(=O)N(CC(=O)NCCc1ccc(Cl)cc1)c1ccc(C(C)C)cc1,-3%,nt,nt,nt,24%[46.1 µM],-20%,?,-1.4%
CNC(=O)c1c(O)c2cccc3c2n(c1=O)CC3,nt,nt,nt,-9%,13%,1%,13%,nt
CCc1ccc(OCC(=O)Nc2ccc(CN3CCCCC3)cc2)cc1,-15%,-8%,-22%,9%,19%,-19%,6%,-1.7%
COc1ccc(NC(=O)CN2C(=O)CSc3ccc(S(=O)(=O)N4CCC(C)CC4)cc32)cc1,nt,23%,4%,2%,-30%[46.1 µM],1%,-17%[46.1 µM],nt
Cc1ccc(C2(C)NC(=O)N(CC(=O)Nc3ccc(-c4nc5ccc(C)cc5s4)cc3)C2=O)cc1 (configuration not stated),nt,-46%,0%,-5%,nt,-10%,-2%,nt
CC1CN(CCn2cnc3c(N)ncnc32)CC(C)O1 (configuration not stated),nt,-2%,1%,7%,2%,-3%,2%,nt
COc1cccc(/C=C/C(=O)OCC(=O)Nc2cccc(S(=O)(=O)N3CCCCC3)c2)c1OC,-13%,12%,-2%,1%,2%,-13%,-5%,-7.8%
Cn1c(=O)n(Cc2ccco2)c(=N)c2c3c(sc21)CCC3,3%,2%,nt,3%,4%,-15%,-1%,-0.2%
O=C(/C=C/Nc1ccc(F)c(F)c1)c1ccc(Br)cc1,25µM*,-11%,9%,27%,?,13%,?,-6.5%
COCc1cc(=O)[nH]c(Cc2c(Cl)cccc2Cl)n1,nt,5%,0%,1%,6%[46.1 µM],-10%,15%[46.1 µM],nt
C/C(=N\NC(=O)c1ccc(NS(=O)(=O)c2cccs2)cc1)c1ccc(C(C)(C)C)cc1,8%,0%,-22%,2%,?,-21%,?,-11%
COc1ccc2c(c1)c1c(c(=O)n(Cc3ccccc3)c(=O)n1CC(=O)Nc1ccc(C)cc1C)n2C,19%,nt,nt,nt,-11%[46.1 µM],-8%,nt,-1.3%
COc1ccc(-c2ccc(-c3noc(-c4ccccc4)n3)c(OC)n2)cc1,-16%,?,?,3%,20%,0%,-3%,-2.0%
Cc1ccccc1Cn1c(=N)n(CC(=O)c2ccco2)c2ccccc21,-7%,?,6%,10%,-1%,?,?,-1.6%
CC[C@@H](C)[C@H](CNC)NC[C@@H](Cc1cccc2ccccc12)NCCc1cccc(C(F)(F)F)c1,nt,-2%,-2%,32%,nt,-69%,nt,nt
C/C(=N\Nc1ccc(S(N)(=O)=O)cc1[N+](=O)[O-])c1cccnc1,nt,3%,3%,34%,nt,-3%,-19%[46.1 µM],nt
Cc1ncc(CN2CCCC(C(=O)c3cccc(OC(C)C)c3)C2)s1 (configuration not stated),nt,-8%,1%,-1%,nt,?,nt,nt
O=C(NCCCN1CCCC1=O)c1ccc(S(=O)(=O)Nc2ccccc2F)cc1,nt,nt,-1%,7%,?,-12%,-5%,nt
C[C@H](NC(=O)c1nc[nH]c1C(=O)N[C@@H](Cc1ccccc1)C(=O)OC(C)(C)C)C(=O)OCc1ccccc1,nt,11µM*,1%,-12%,nt,-6%,nt,nt
CCCc1nnc(NC(=O)c2cc(=O)c3ccccc3o2)s1,-2%,nt,nt,nt,25%[46.1 µM],39%[activator],?,-2.2%
COc1ccccc1-n1c(SCC(=O)Nc2cc(C)on2)nc2c([nH]c3ccccc32)c1=O,nt,-20%,6%,-4%,?,-24%,?,nt
CC(NC(=O)C(C)N1c2cccc3cccc(c23)S1(=O)=O)c1ccccc1 (configuration not stated),nt,-57%,-3%,1%,7%,-1%,?,nt
O=C(CCN1C(=O)S/C(=C\c2ccccc2)C1=O)N1CCOCC1,nt,nt,nt,0%,8%,10%,5%,nt
O=C(NC(Cc1c[nH]c2ccccc12)C(=O)O)/C(=C\c1ccccc1)NC(=O)c1ccccc1 (configuration not stated),nt,2%,1%,1%,-1%[46.1 µM],-11%,8%[46.1 µM],nt
CCOC(=O)C(C)Sc1nnc(-c2ccccc2O)n1-c1ccc(C)cc1 (configuration not stated),-9%,-4%,8%,24%,2%,-2%,-3%,-2.8%
COC(=O)CCN(C(=O)c1c(C)oc2ncnc(N3CCOCC3)c12)c1ccccc1,-7%,nt,nt,nt,?,-2%,nt,5.2%
CCOc1c(C)cnc2c1c(=O)n(Cc1cccc(Cl)c1)c(=O)n2C,nt,-22%,-30%,-2%,nt,-17%,nt,nt
CC(C)n1c(=O)n(CC(=O)NCC2CCCO2)c(=O)c2c3c(sc21)COC(C)(C)C3 (configuration not stated),nt,14%,7%,-9%,nt,0%,nt,nt
Cc1ccc(N(C)C(=O)CN(C)S(=O)(=O)c2ccc3c(c2)n(C)c(=O)c(=O)n3C)cc1,nt,0%,0%,-17%,nt,-10%,nt,nt
O=C(O)CCCCCNc1ncnc2ccc(Br)cc12,nt,8%,1%,1%,3%,-17%,2%[46.1 µM],nt
O=C1Nc2ccc([N+](=O)[O-])cc2C1(O)N1CCCCC1 (configuration not stated),2%,4%,2%,1%,-2%,56%[activator],30%,-4.1%
CCOc1ccc(C(=O)C(C)OC(=O)C2CCN(c3ccc(C(F)(F)F)cn3)CC2)cc1 (configuration not stated),nt,nt,1%,0%,?,-14%,?,nt
CN1/C(=C\C(=O)CSc2nnc(N)s2)C(C)(C)c2ccccc21,?,7%,0%,-17%,?,?,?,-14%
Cc1ccc(CS(=O)Cc2ccc(C(=O)N3CCN(c4ccc(F)cc4)CC3)o2)cc1 (configuration not stated),nt,-1%,-2%,-11%,-7%[46.1 µM],-25%,1%[46.1 µM],nt
CCOC(=O)C1CCN(c2c(N3CCN(c4ccccc4OC)CC3)c(=O)c2=O)CC1,-4%,-10%,-18%,9%,-1%,-19%,5%&5%,-3.2%
COc1ccc(-n2c(CC3C(=O)N(C)c4ccc(C)cc43)nc3ccccc3c2=O)cc1 (configuration not stated),?,nt,nt,nt,1%[46.1 µM],?,3%[46.1 µM],-5.0%
NC(=O)C1(N2CCCCC2)CCN(c2nc(-c3ccc(Br)cc3)cs2)CC1,10%,24%,-5%,-15%,-12%,-10%,21%,-12%
O=C(CSc1nnc(CNc2cccc(Cl)c2)o1)OC1CCCCC1,-4%,-6%,-8%,-7%,-1%,5%,5%,-7.4%
CCOC(=O)c1c(-c2ccc(OC)cc2)csc1/N=C/C1C(=O)CCCC1=O,nt,8%,4%,-4%,-18%[46.1 µM],-12%,?,nt
CN(C)S(=O)(=O)c1ccc(C(=O)Nc2nnc(SCC(=O)NCC3CCCO3)s2)cc1 (configuration not stated),nt,4%,-3%,3%,-18%,5%,-1%,nt
CCN(CC(=O)Nc1ccccc1OC)C(=O)Cn1cnc2ccccc2c1=O,1%,-2%,0%,12%,11%,-14%,?,2.1%
O=C(CSc1ccc2nnc(-c3cccnc3)n2n1)Nc1cccc(F)c1,nt,-3%,-1%,-7%,nt,-3%,nt,nt
COc1ccccc1CC(=O)Nc1cc(Cl)ccc1O,-8%,-15%,-6%,-13%,-13%,-5%,4%&4%,-2.1%
N#Cc1cc2c(nc1SCC(=O)Nc1nccs1)CCCCC2,?,11%,?,1%,?,-9%,?,1.5%
COc1ccc2cc(C(=O)COC(=O)COc3ccc4c(C)cc(=O)oc4c3)ccc2c1,4%,5%,-13%,14%,?,15%,13%,-9.6%
CCCCNC(=O)COC(=O)c1ccc(N(C)C)cc1,nt,nt,-5%,-11%,-15%[46.1 µM],5%,?,nt
CC(C)N=C(NS(=O)(=O)c1ccc(Br)cc1)c1ccc(Cl)cc1,nt,0%,1%,14%,?,9%,5%[46.1 µM],nt
CC1CCC(NC(=O)c2ccc(/C=C3\Oc4ccccc4N(C)C3=O)cc2)CC1 (configuration not stated),-4%,2%,10%,nt,nt,nt,5%,7.5%
O=C(Nc1cnn(Cc2ccc(F)cc2)c1)c1cnccn1,-14%,-1%,2%,9%,7%,30%[activator],13%,3.1%
C=C(CCC(=O)c1ccccc1)C(=O)c1ccccc1,-5%,-45%,-91%,32µM*,?,?,?,-21%
COc1ccc(NC(=O)N(C2CCCCC2)C(C)c2cccnc2)c(OC)c1 (configuration not stated),0%,-47%,-10%,-9%,7%,18%,0%,0.8%
NC(=O)CCNC(=O)c1ccc(Cl)cc1,-3%,4%,-8%,14%,2%,20%,8%[46.1 µM],1.5%
COc1ccc(CNC(=O)c2ccc3c(c2)nc2n3CCOC2)c(OC)c1,-7%,nt,nt,nt,14%[46.1 µM],11%,nt,2.8%
Cc1ccc(Oc2nc(CN3CCOCC3)nc3sc4c(c23)CCC(C)C4)cc1C (configuration not stated),?,-3%,-89%,1%,6%,-11%,?,-5.5%
O=C(CCC(=O)N1CCSc2ccccc21)Nc1ccc(F)cc1,nt,-20%,-1%,10%,nt,?,nt,nt
COc1ccc(C2=NN(C(=O)CCC(=O)O)C(c3cccs3)C2)cc1OC (configuration not stated),nt,2%,17%,7%,0%,-10%,8%[46.1 µM],nt
